# TRPV1 PAM – potentiators of human vanilloid receptor 1 (TRPV1); Q8NER1; TRPV1-expressing cells, Fluo-8 calcium influx, capsaicin EC20 potentiation; host cell line not named in the record; control for the full effect not named in the record; potentiation, % at 8.33 µM; 320,000 compounds, 0.02% hits; AID 540277; active means potentiation above 80%; inconclusive means 30% to 80%; inactive means below 30%; note: 0% is about no effect
#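 Fluo-8 calcium influx in TRPV1-expressing cells, kinetic read (ex 480/em 520 nm). Compound added and read 3 min for agonist activity, followed by capsaicin at EC20 final and 2 min further read for enhancement.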
# Sfp inh – inhibitors of Bacillus subtilis Sfp phosphopantetheinyl transferase; 310,000 compounds, 3.5% hits; Potency, µM, for inactives: max response, negative = inhibition, most hits filed as inhibitors; Q9F4F7; Biochemical Sfp PPTase activity, qHTS; active = well fitted inhibition curve with a large enough effect; inconclusive = small, poorly fitted or top-dose-only effect, or another doubt; inactive = no such curve, though single readings can be large or run the other way;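 note: the enzyme is Sfp with the accession as filed and its product quenches rhodamine fluorescence; potency is the fitted concentration of half-maximal effect; 0% = enzyme reaction without inhibitor and -100% = no enzyme wells; top concentration of the series not given in the record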
#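 Buffer: 50 mM Hepes-Na pH 7.6, 10 mM MgCl2, 0.01% Nonidet P-40, 0.01% BSA. Enzyme 15 nM, pre-exposed to compound 15 min; substrates then added and fluorescence change tracked over 30 min.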
# gsp ag – activates gsp, the McCune-Albright syndrome mutation; AID 624287; 340,000 compounds, 0.13% hits; gsp mutant cells, cAMP HTRF, 30 min; control for the full effect not named in the record; Potency, µM (titrated, usually from 76.9 µM), for the others: at the highest dose activation (cAMP increase), actives largely listed as activators; active = well fitted activation curve with a large enough effect; inconclusive = small, poorly fitted or top-dose-only effect, or another doubt; inactive = no such curve, though single readings can be large or run the other way; cell line not stated here;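 note: phosphodiesterase inhibitor Ro 20-1724 added with compounds to block cAMP breakdown; potency is the fitted concentration of half-maximal effect; nearly all actives have a fitted effect of over 60% in size; about a fifth of the inactives were tested at one dose only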
#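 Cells stably selected in G418 were plated at 2000/well, grown 16-24 hr, then given compounds in DMSO with the PDE inhibitor […] (300 uM solution added) for 30 min at 37C; cAMP was read by HTRF.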
# Menin MLL FP FL – inhibitors of human menin-MLL interaction, wild-type MLL peptide; Fluorescence polarization, fluorescein-MLL peptide displacement from menin; FP activity change, % at 61.4 µM; 290,000 tested, under 10 active; inconclusive = falling polarisation curve, or a change in total fluorescence; inactive = total fluorescence flat and polarisation flat or rising; no compound was filed as active; the % refers to the polarisation; negative = inhibition;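 note: % of control where 0% means no effect; inhibitors lower the polarisation; unlabelled MLL peptide was the positive control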
# gsp antag – gsp mutant antagonism. gsp-mutant cells, cAMP HTRF, 30 min; control for the full effect not named in the record. Potency, µM (doses to about 76.9 µM), for inactives: at the top dose activity change, negative = inhibition, hits mostly inhibitors. 340,000 compounds, 0.4% hits. AID 624288; active = falling curve of any shape with a large fitted effect; inconclusive = falling curve, mostly with a smaller effect; inactive = flat or rising curve; cell line not stated here;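 note: intracellular cAMP measured with PDE inhibitor Ro 20-1724 present during compound exposure; potency is the fitted concentration of half-maximal effect; % is set by controls: 0 for no effect and ±100 for the full control effect; nearly all actives have a fitted effect of over 65% in size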
#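 HTRF cAMP read-out (cAMP-d2 plus anti-cAMP antibody-K in lysis buffer, 30 min RT). Before lysis, cells are exposed to compounds with […] for 30 min at 37C in DPBS containing Ca/Mg, BSA and Tween 20.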
# ClpP mod – qHTS Assay for Activators of ClpP. purified B. subtilis ClpP, FRET peptide cleavage, 20 min. Potency, µM (highest dose often 57.5 µM), inactives show top-dose activity change, negative = active. 340,000 compounds, 1.9% hits. AID 651965, 2013; active = well fitted falling curve with a large enough effect; inconclusive = small, poorly fitted or top-dose-only effect; inactive = no such curve, though single readings can be large or run the other way; note: potency is the fitted concentration of half-maximal effect; the source files actives as falling curves though it sought activators and does not explain the sign; nearly all actives have a fitted effect of over 65% in size; many hits overshoot -100%
# Target sequence (P80244 whole entry, looked up): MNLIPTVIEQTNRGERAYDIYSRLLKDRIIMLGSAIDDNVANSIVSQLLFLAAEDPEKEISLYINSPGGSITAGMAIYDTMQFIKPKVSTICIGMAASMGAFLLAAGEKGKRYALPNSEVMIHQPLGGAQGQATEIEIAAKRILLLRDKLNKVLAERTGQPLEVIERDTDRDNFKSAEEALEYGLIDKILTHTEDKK
#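 Purified B. subtilis ClpP, 10 microg/mL final in Tris/HCl pH8 with KCl, BSA, glycerol and Tween-20, cleaved an Abz/nitrotyrosine-quenched decapeptide. Fluorescence (ex 320, em 430) was read at 0 and 20 min at room temperature. Delta was normalized to 5.8 microM ADEP and DMSO/no-enzyme controls.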
# TRPML1 blocker – inhibitors of human TRPML1 channel; AID 624415; activity change, negative = inhibition, % (no concentration beside the values); TRPML1-inducible cells, Ca2+ dye fluorescence, FDSS; active compounds read low; inhibition of EC80 agonist-evoked calcium signal; Q9GZU1; 390,000 compounds, 0.02% hits; in the data active means activity change below about -50%; inconclusive means about -30% to -50%; inactive means above about -30%;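 note: stimulus is agonist 54-4 at its EC80 concentration; % is set by controls: 0 for no effect and ±100 for the full control effect; compound concentration not given in the record; the text of the record puts the active cut at -80%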
# Target sequence (Q9GZU1 whole entry, looked up): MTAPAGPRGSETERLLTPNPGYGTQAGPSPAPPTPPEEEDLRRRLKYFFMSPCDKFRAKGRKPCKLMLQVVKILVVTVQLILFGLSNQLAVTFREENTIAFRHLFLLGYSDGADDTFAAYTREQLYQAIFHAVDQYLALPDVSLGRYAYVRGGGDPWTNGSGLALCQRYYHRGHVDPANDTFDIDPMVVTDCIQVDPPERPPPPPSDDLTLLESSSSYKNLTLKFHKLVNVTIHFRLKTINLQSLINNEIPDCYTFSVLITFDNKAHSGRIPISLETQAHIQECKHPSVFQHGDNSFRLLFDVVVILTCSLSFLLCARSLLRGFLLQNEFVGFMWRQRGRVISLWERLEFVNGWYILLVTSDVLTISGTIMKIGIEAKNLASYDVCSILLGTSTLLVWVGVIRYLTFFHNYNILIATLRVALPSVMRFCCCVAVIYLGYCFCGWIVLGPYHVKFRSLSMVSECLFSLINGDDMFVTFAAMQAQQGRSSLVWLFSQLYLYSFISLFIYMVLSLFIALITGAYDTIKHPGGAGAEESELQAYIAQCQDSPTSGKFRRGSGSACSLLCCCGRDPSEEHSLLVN
#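 TRPML1-DL cells, Tet-induced overnight (~16 h, 37 °C) at 1,500 cells/well, were loaded with Ca8 no-wash dye plus quencher for 45-90 min at room temperature. Compounds were pinned during FDSS kinetic reading; agonist 54-4 at EC80 (4 uM final) then added.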
# Numbers without * were called inactive; ? = inconclusive; / = no result given; [ ] = dose if it differs, or a comment. Outcome played no part in choosing rows; about 4.9% have a hit in one of these screens.
nr	canonical_smiles	TRPV1 PAM	Sfp inh	gsp ag	Menin MLL FP FL	gsp antag	ClpP mod	TRPML1 blocker
1	COc1cc2c(cc1OC)CN(C(=O)c1ccc(Cl)c(S(=O)(=O)N3CCCC3)c1)CC2	/	/	-23.4%	/	-9.8%	-1.2%	1.3
2	CCOC(OCC)c1cc2ccccc2cn1	/	/	/	/	3.8%	-0.6%	17.2
3	Cc1nc(CC(=O)NNS(=O)(=O)c2ccc3ccccc3c2)cs1	-8.0	1.1%	14.1%	7.9	3.8%	-0.2%	-0.1
4	Cn1c(C(C#N)C(=O)c2sc3ccccc3c2Cl)nc2ccccc21 (stereo not given)	10.8	7.6%	-2.8%	-0.1	?	0.1%	-6.0
5	COc1cc(/C=N/NC(=S)Nc2cccc(C(=O)O)c2)cc(OC)c1OC	-3.3	-5.1%	21.2%	-1.7	-18.0%	-9.0%	-4.5
6	O=C(OCc1nnc(-c2ccccc2)o1)c1ccco1	5.0	3.5%	-21.2%	1.4	19.3%	-2.1%	16.7
7	Cc1ccc(S(=O)(=O)Oc2ccc(/C=C(/NC(=O)c3ccccc3)C(=O)NCCC(=O)O)cc2)cc1	17.1	5.3%	-3.3%[15.4 µM]	1.5	3.0%	/	-7.0
8	CCn1c(CNc2ccc(F)cc2)nnc1SCC(=O)Nc1ccc(OC)cc1	17.3	20.1%	9.0%	-1.6	-0.6%	-1.9%	-5.7

# Other entries
nr	canonical_smiles	TRPV1 PAM	Sfp inh	gsp ag	Menin MLL FP FL	gsp antag	ClpP mod	TRPML1 blocker
9	COc1ccc(C(=O)NNS(=O)(=O)c2ccccc2)cc1	?	-2.9%	-7.1%	2.1	7.5%	0.3%	-3.9
10	CCN1C(=O)[C@@H]2[C@@H](c3ccc(-c4ccc5c(c4)OCO5)cc3)N3CCCC[C@@]3(C(=O)OC)[C@@H]2C1=O	10.5	/	/	/	-6.5%	-28.4%	20.9
11	CCOC(=O)c1ccc(NS(=O)(=O)c2cn(C)cn2)cc1	4.9	19.4%	28.5%	-4.6	-24.9%	-2.2%	-3.0
12	C[C@]12CC[C@@H]3c4ccc(O)cc4CC[C@H]3[C@@H]1C[C@@H](O)[C@@H]2O[C@@H]1O[C@H](C(=O)O)[C@@H](O)[C@H](O)[C@H]1O	-6.8	-19.0%	/	3.8	6.1%	-0.7%	-2.8
13	Cc1ccc2c(c1)/C(=C/c1ccccc1F)C(=O)N2	5.0	10.9%	-12.7%	-4.0	-9.3%	1.7%	-11.7
14	Cc1c(O)cc2c(c1O)C(=O)CC(c1ccccc1)O2 (stereo not given)	-7.4	11.2%	/	7.5	2.2%	-0.4%	/
15	COCCNC(=O)COc1coc(CN2CCN(Cc3ccccc3)CC2)cc1=O	-12.7	10.9%	-0.3%	/	11.1%	/	6.1
16	C[C@@H](NC(=O)c1nc[nH]c1C(=O)NC1CCN(C(=O)OC(C)(C)C)CC1)c1ccccc1	0.7	/	/	/	-11.8%	-0.5%	-6.3

# The listing continues:
nr	canonical_smiles	TRPV1 PAM	Sfp inh	gsp ag	Menin MLL FP FL	gsp antag	ClpP mod	TRPML1 blocker
17	COc1ccc(Cl)cc1NC(=O)CN(C)CC(=O)N1CC(=O)Nc2ccccc21	0.4	/	?	/	-24.0%	-0.8%	-5.7
18	C[C@]12C(=O)N(c3ccc(F)cc3)C(=O)N1[C@@H]1c3ccccc3OC[C@@H]1[C@H]2c1ccccc1	-4.2	9.9%	11.9%	4.6	2.7%	-0.7%	69.6
19	O=C(CN1CCC(N2CCCCC2)CC1)N1CCOCC1	5.8	?	/	-5.1	/	/	/
20	O=C(CCc1ccccc1)Nc1cc(S(=O)(=O)N2CCOCC2)ccc1N1CCCC1	3.8	/	-16.6%[15.4 µM]	/	-1.5%	-1.6%	-9.3
21	COc1ccc2ccccc2c1C1CC(=O)N2CN(C3CCCCC3)CSC2=C1C#N (stereo not given)	/	12.6µM*	-33.8%[inhibitor]	5.1	?	-4.4%	-3.0
22	Cc1nc(Cl)c(C(=O)Nc2cccc(F)c2)c(C)c1Cl	-3.7	5.3%	1.4%[15.4 µM]	-2.0	-15.4%	1.0%	-19.4
23	COc1ccc(C2=NN(C(=O)CCC(=O)O)C(c3cccs3)C2)cc1 (stereo not given)	26.2	-1.8%	-4.8%[15.4 µM]	3.3	5.0%	/	18.6
24	COc1cc(CC(=O)NCc2cccs2)cc(OC)c1OC	8.5	-1.5%	4.2%	-2.1	5.5%	2.1%	3.0

# (further entries)
nr	canonical_smiles	TRPV1 PAM	Sfp inh	gsp ag	Menin MLL FP FL	gsp antag	ClpP mod	TRPML1 blocker
25	CNC(=S)Nc1cc(Cl)ccc1Oc1ccccc1	-17.2	19.9%	2.8%	3.4	4.6%	2.9%	-15.7
26	O=C(CN1CCCC1)Nc1nc(-c2ccc3c(c2)CCN3C(=O)c2ccccc2F)cs1	1.6	-4.7%	-20.1%[15.4 µM]	/	2.6%	/	-4.3
27	CC(NS(=O)(=O)c1ccccc1)C1COc2ccccc2O1 (stereo not given)	3.2	12.8%	?	0.2	-13.2%	1.1%	-2.0
28	Cc1ccc(C(C(=O)NC2CCCC2)N(Cc2ccco2)C(=O)CCC(=O)Nc2ccccn2)cc1 (stereo not given)	27.4	7.2%	0.6%	0.2	-5.7%[15.4 µM]	-0.8%	2.3
29	CC(C)(C)c1ccccc1NC(=O)CN1C(=O)NC2(CCCCCC2)C1=O	-6.0	/	10.3%	/	-2.7%	1.1%	13.5
30	Cc1c(NS(=O)(=O)c2ccc([N+](=O)[O-])cc2)c(=O)n(-c2ccccc2)n1C	4.2	3.5%	-2.3%[15.4 µM]	0.3	-4.2%	0.0%	42.4
31	CCOc1ccccc1NC(=O)COC(=O)Cc1ccc(-c2ccccc2)cc1	-5.7	?	-10.1%	-18.6	-15.3%	-1.4%	29.4
32	O=C(NOC(=O)c1ccccc1)c1ccccc1	7.9	2.5%	-2.0%	-0.3	3.9%	/	5.4

# Some of these compounds in order of count of non-hydrogen atoms, high to low.
nr	canonical_smiles	TRPV1 PAM	Sfp inh	gsp ag	Menin MLL FP FL	gsp antag	ClpP mod	TRPML1 blocker
28	Cc1ccc(C(C(=O)NC2CCCC2)N(Cc2ccco2)C(=O)CCC(=O)Nc2ccccn2)cc1 (stereo not given)	27.4	7.2%	0.6%	0.2	-5.7%[15.4 µM]	-0.8%	2.3
26	O=C(CN1CCCC1)Nc1nc(-c2ccc3c(c2)CCN3C(=O)c2ccccc2F)cs1	1.6	-4.7%	-20.1%[15.4 µM]	/	2.6%	/	-4.3
31	CCOc1ccccc1NC(=O)COC(=O)Cc1ccc(-c2ccccc2)cc1	-5.7	?	-10.1%	-18.6	-15.3%	-1.4%	29.4
29	CC(C)(C)c1ccccc1NC(=O)CN1C(=O)NC2(CCCCCC2)C1=O	-6.0	/	10.3%	/	-2.7%	1.1%	13.5
23	COc1ccc(C2=NN(C(=O)CCC(=O)O)C(c3cccs3)C2)cc1 (stereo not given)	26.2	-1.8%	-4.8%[15.4 µM]	3.3	5.0%	/	18.6
27	CC(NS(=O)(=O)c1ccccc1)C1COc2ccccc2O1 (stereo not given)	3.2	12.8%	?	0.2	-13.2%	1.1%	-2.0
22	Cc1nc(Cl)c(C(=O)Nc2cccc(F)c2)c(C)c1Cl	-3.7	5.3%	1.4%[15.4 µM]	-2.0	-15.4%	1.0%	-19.4
25	CNC(=S)Nc1cc(Cl)ccc1Oc1ccccc1	-17.2	19.9%	2.8%	3.4	4.6%	2.9%	-15.7
32	O=C(NOC(=O)c1ccccc1)c1ccccc1	7.9	2.5%	-2.0%	-0.3	3.9%	/	5.4

# Later entries.
nr	canonical_smiles	TRPV1 PAM	Sfp inh	gsp ag	Menin MLL FP FL	gsp antag	ClpP mod	TRPML1 blocker
33	Cc1cc(N2C(=O)C(O)=C(C(=O)c3ccc(C)o3)C2c2ccc([N+](=O)[O-])cc2)no1 (stereo not given)	-1.4	4.0%	15.6%	/	-15.3%	-0.4%	2.6
34	CC1=NC(=O)C(N=Nc2ccccc2)N1c1ccccc1 (stereo not given)	-6.9	-1.1%	-20.4%	0.1	-10.2%	-14.5%	-4.0
35	CC1=NN(c2nc(-c3ccc(C#N)cc3)cs2)C(=O)C1	0.9	11.6%	0.8%	3.2	-17.6%	/	-12.4
36	O=C(NCC1CCCCC1)c1cc(Br)ccc1Cl	0.9	6.0%	-0.6%[15.4 µM]	-5.4	2.9%	/	-15.4
37	O=C(NC(=S)Nc1ccc(N2CCOCC2)c(Cl)c1)c1sc2ccccc2c1Cl	1.6	?	?	2.5	0.2%	0.8%	-4.2
38	CC(C)c1onc(C(=O)N2CCN(C(c3ccccc3)c3ccccc3)CC2)c1[N+](=O)[O-]	1.0	-7.6%	-33.9%[inhibitor]	1.6	2.5%	-2.7%	-10.8
39	Clc1cc2nc[nH]c2cc1Cl	17.3	-27.5%	3.1%[15.4 µM]	-7.6	-26.0%	-0.4%	-5.2
40	COc1ccc(/C=C/c2nc(C)c(-c3ccccc3)c(=O)[nH]2)cc1OC	-1.9	-3.2%	-42.6%[inhibitor]	-2.7	9.9%	-9.2%	11.5

# Further results
nr	canonical_smiles	TRPV1 PAM	Sfp inh	gsp ag	Menin MLL FP FL	gsp antag	ClpP mod	TRPML1 blocker
41	Cc1nn(C)c(C(=O)Nc2cccc(CN3CCOCC3)c2)c1Br	-8.2	-3.8%	-16.6%	3.8	5.5%	-2.3%	-11.4
42	Cc1noc(C)c1C(=O)OCC(=O)NCc1ccc(Cl)cc1	9.0	/	41.4%	/	-7.5%	-0.8%	-8.1
43	CCN1CCN(Cc2ccc(OCc3ccccc3)c(OC)c2)CC1	1.3	11.4%	-43.7%[inhibitor]	3.7	0.3%	0.3%	1.1
44	Cc1cc([N+](=O)[O-])nn1CCCC(=O)Nc1cc(Cl)ccc1Cl	-5.7	1.0%	-2.8%	-0.3	0.3%	/	-14.0
45	O=C(Cc1ccc(Cl)cc1)Nc1cccnc1	-0.7	13.1%	?	1.9	6.8%	-0.9%	/

# Compound activity from PubChem BioAssay.
